Mtb H37Rv = Confirmatory growth inhibition assay against Mycobacterium tuberculosis H37Rv, potency (AID 1949); most inactive calls were filed without a number and no value below 0 was filed; one-dose inhibition, % at 10 µg/mL; IC50 in µg/mL for titrated hits; hit rate 1.6% among 100,000;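 active = confirmed in a dose series; inconclusive = about 50% or more but not retested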;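 also: bacteria grown 7 days with compound before Alamar blue readout; 0% = untreated bacteria and 100% = reference antibiotic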
The depositor's hits bear a star; i = inactive; ? = inconclusive.

Start of the data: the first 18 entries (preview)
SMILES	Mtb H37Rv
COc1cc(C2C3=C(CCCC3=O)Nc3ncnn32)cc(Br)c1O (stereo not given)	2%
Cc1cc(Cl)cc(C)c1OCCNCc1ccccc1	27%
CC(C)N=C(NS(=O)(=O)c1ccccc1)c1ccccc1F	i
CC(C)c1ccc(OCc2nnc(SCC(=O)Nc3nccs3)o2)cc1	i
COC(=O)N1CCN(C(=O)c2sc3cc(Cl)ccc3c2Cl)CC1	3%
O=C(COc1ccc2ccccc2c1)Nc1ccccc1-c1nc2ccccc2s1	i
CCOc1ccc(-n2nc3cc(C)c(NC(=O)c4ccc(C)cc4C)cc3n2)cc1	i
CC(C)C(NC(=O)c1cccs1)C(=O)NC1CCCCC1 (stereo not given)	1%
CCn1c(CNC(=O)Cc2ccc(OC)cc2)nnc1SCc1ccc(Br)cc1	i
OCCCCNCc1cc(Br)ccc1OCc1ccccc1	i
CCOc1ccc(S(=O)(=O)Nc2ccc3c(c2)OCCO3)cc1	5%
CCOC(=O)c1c(NC(=O)c2sc3nc(C)c(C(C)=O)cc3c2N)sc2c1CCCC2	i
CCc1cc(Br)ccc1NC(=O)Nc1ccc(OC)c(OC)c1	4%
Cc1ccc(Cl)cc1NC(=O)Cn1cc(C=O)c2ccccc21	i
COC(=O)c1oc2c(c1C)C1(CCC2)SCCS1	i
COc1ccc(C2(C#N)CCOCC2)cc1	i
COc1ccccc1NC(=O)c1ccc(CS(=O)(=O)c2ccc(C)cc2)cc1	i
Fc1cccc(CN2CCN(C3CCCC3)CC2)c1	i

The list itself, repeating the preview:
SMILES	Mtb H37Rv
COc1cc(C2C3=C(CCCC3=O)Nc3ncnn32)cc(Br)c1O (stereo not given)	2%
Cc1cc(Cl)cc(C)c1OCCNCc1ccccc1	27%
CC(C)N=C(NS(=O)(=O)c1ccccc1)c1ccccc1F	i
CC(C)c1ccc(OCc2nnc(SCC(=O)Nc3nccs3)o2)cc1	i
COC(=O)N1CCN(C(=O)c2sc3cc(Cl)ccc3c2Cl)CC1	3%
O=C(COc1ccc2ccccc2c1)Nc1ccccc1-c1nc2ccccc2s1	i
CCOc1ccc(-n2nc3cc(C)c(NC(=O)c4ccc(C)cc4C)cc3n2)cc1	i
CC(C)C(NC(=O)c1cccs1)C(=O)NC1CCCCC1 (stereo not given)	1%
CCn1c(CNC(=O)Cc2ccc(OC)cc2)nnc1SCc1ccc(Br)cc1	i
OCCCCNCc1cc(Br)ccc1OCc1ccccc1	i
CCOc1ccc(S(=O)(=O)Nc2ccc3c(c2)OCCO3)cc1	5%
CCOC(=O)c1c(NC(=O)c2sc3nc(C)c(C(C)=O)cc3c2N)sc2c1CCCC2	i
CCc1cc(Br)ccc1NC(=O)Nc1ccc(OC)c(OC)c1	4%
Cc1ccc(Cl)cc1NC(=O)Cn1cc(C=O)c2ccccc21	i
COC(=O)c1oc2c(c1C)C1(CCC2)SCCS1	i
COc1ccc(C2(C#N)CCOCC2)cc1	i
COc1ccccc1NC(=O)c1ccc(CS(=O)(=O)c2ccc(C)cc2)cc1	i
Fc1cccc(CN2CCN(C3CCCC3)CC2)c1	i
O=C(Oc1ccc(OC(=O)N2CCCCC2)cc1)c1ccccc1	i
O=C(c1nc2ccccc2s1)N1CCN(c2ccccn2)CC1	41%
Cc1ccc(Cl)cc1NC(=O)Cc1ccc(Br)cc1	i
CCc1cc2c(=O)c(-c3nc4ccccc4n3C)coc2cc1OC(C)=O	i
COC(=O)c1sc(NC(=S)Nc2ccc(Cl)cn2)c(C(=O)OC)c1C	i
O=C(c1ccc(F)cc1)N1CCN(c2nnnn2-c2ccccc2)CC1	i
COc1ccc(Cl)cc1N(CC(=O)N1CCCCC1)S(C)(=O)=O	i
CC(=O)Nc1ccc(NC(=O)CNS(=O)(=O)c2ccc(C)cc2)cc1	i
Cc1ccc(-n2c(SCCN(C)C)nc3ccccc3c2=O)cc1	0%
O=C(CN1CCCCC1)Nc1ccc(F)cc1	i
Cn1c(SCC(=O)N2CCN(c3ccccc3)CC2)nnc1-c1ccccc1Cl	i
CCc1ccccc1Nc1ncnc(N)c1[N+](=O)[O-]	i
COc1ccc(-n2c(Cc3ccccc3)nnc2SCC(=O)Nc2ccc(Br)cc2F)cc1	28%
Cc1cc(C(=O)NCc2cccnc2)cs1	i
COc1ccc(C2=NC(SC)C3=C(CC(C)(C)OC3)N2)cc1 (stereo not given)	i
CC(C)c1ccccc1OCC(=O)N1CCc2ccccc21	3%
O=C(CSC1=NC(=O)C(c2ccccc2)C(=O)N1)Nc1cccc(Cl)c1 (stereo not given)	?
CCc1cc2c(N3CCN(c4nc(C)cc(C)n4)CC3)ncnc2s1	i
CCOc1ccc(C)cc1S(=O)(=O)NCCOC	i
Cc1ccc(C)c(NC(=S)NCc2ccc(Cl)cc2)c1	i
Cc1ccc(S(=O)(=O)NCCC2=CCCCC2)cc1C(N)=O	i
O=C(COc1ccc2ccccc2c1)Nc1ccc(CN2CCOCC2)cc1	14%
CN(C)S(=O)(=O)CC12CCC(CC1=O)C2(C)C (stereo not given)	i
CCCC(=O)NC(=S)Nc1ccc2oc(-c3cc(F)c(F)cc3Cl)nc2c1	i
COc1ccc(C(=O)c2sc3nc(-c4ccco4)cc(C(F)(F)F)c3c2N)cc1OC	0%
O=C(COc1cc(Cl)c(Cl)cc1Cl)Nc1ccc(Br)cc1	i
COC(=O)c1ccccc1NC(=O)CN1CCC(C)CC1	3%
COc1ccc(CCNC(=S)NNC(=O)Cc2c(F)cccc2Cl)cc1OC	i
Cc1cc(=O)n(CC(C)C)c(O)c1C#N	1%
CCOc1ccc(C2NC(=S)NC(C)=C2C(=O)NC)c2ccccc12 (stereo not given)	i
CCOC(=O)c1c(-c2ccccc2)csc1NC(=O)C#Cc1ccccc1	i
COC(=O)CN(C)S(=O)(=O)c1cc(C)ccc1OC	i
COc1ccc(C(C)C)cc1S(=O)(=O)N1CCCCC1C (stereo not given)	i
c1ccc(-c2oc3ncn4ncnc4c3c2-c2ccccc2)cc1	0%
O=S(=O)(/N=C(\Nc1ccc(Br)cc1)C(F)(F)F)c1ccccc1	i
O=C(CSc1nnc(NC(=O)c2ccccc2Br)s1)Nc1nccs1	i
CCCCc1cc(=O)oc2cc3occ(-c4ccc(OC)cc4)c3cc12	4%
CCN1C(=O)/C(=C2\SC(=O)N(Cc3ccccc3)C2=O)c2ccccc21	i
CCc1ccccc1OCC(=O)Nc1ccc([N+](=O)[O-])cc1OC	2%
CCOc1ccc(-c2c(C)sc3ncn(C(C)C(=O)OCc4ccccc4Cl)c(=O)c23)cc1 (stereo not given)	7%
Oc1ccccc1Nc1nc(N2CCOCC2)c2ccccc2n1	i
CCc1ccc(-n2c(SCC(=O)Nc3cccc(OC)c3)nnc2-c2ccncc2)cc1	i

The list goes on:
SMILES	Mtb H37Rv
Cc1ccc(N/C(=N\S(=O)(=O)c2cccc([N+](=O)[O-])c2)c2ccc(C)cc2)cc1	0%
CC(C)c1ccc(NC(=O)CN2C(=O)c3cccc4cccc2c34)cc1	i
Cc1ccc(CNC(=S)Nc2cc(C)ccc2OC(F)F)cc1	i
O=C(C1CCCO1)N1CCN(c2ccc(Cl)c(Cl)c2)CC1 (stereo not given)	1%
CCOC(=O)C1CCN(C(=O)CN(c2ccccc2Cl)S(=O)(=O)c2ccc(C)cc2)CC1	i
O=C(C(c1ccccc1)c1ccccc1)N1CCN(C2CCN(Cc3ccccc3)CC2)CC1	i
O=C(CSc1ccc(Nc2ccc(Cl)cc2)nn1)Nc1ccc(Cl)cc1	i
Cc1ccccc1C(=O)N1CCC(C(=O)Nc2ccc(Br)cc2)CC1	i
CCN(c1ccccc1)S(=O)(=O)c1ccc(NC(=O)COc2c(C)cccc2C)cc1	i
COCc1nnc(NC(=O)c2sc3ccccc3c2Cl)s1	i
COc1ccc(S(=O)(=O)N(CC(=O)Nc2cccc(C(F)(F)F)c2)c2ccc(C)cc2)cc1	3%
OCCn1c(CCCCc2nc3ccccc3n2CCO)nc2ccccc21	i
COc1cccc(C2CC(c3cccc(F)c3)n3ncnc3N2)c1 (stereo not given)	i
CC(=O)c1cccc(NS(=O)(=O)c2ccc(CC(C)C)cc2)c1	i
COc1ccc(-c2noc(CN3CCN(c4ccccc4OC)CC3)n2)cc1OC	i
COc1cccc(C(=O)NCc2ccc(CNC(=O)c3cccc(OC)c3)cc2)c1	i
Cc1ccccc1C(=O)Nc1ccc(Cl)cc1C(F)(F)F	i
CC(C)c1ccc(CNC(=O)C(=O)Nc2ccc(Cl)cc2)cc1	i
CC(=O)c1ccc(NS(=O)(=O)c2cccc(C)c2)cc1	i
COc1ccc2c(C)nc(Nc3nc(C)c(C)c(=O)[nH]3)nc2c1	i
COc1cc(C(=O)NC(NC(=S)Nc2ccccc2)C(Cl)(Cl)Cl)cc(OC)c1OC (stereo not given)	0%
Cc1c(OCC(=O)C(C)(C)C)ccc2c(C(F)(F)F)cc(=O)oc12	i
CN(c1ccccc1C(=O)Nc1cccc(C(F)(F)F)c1)S(C)(=O)=O	i
CS(=O)(=O)N(CC(=O)Nc1ccc(S(=O)(=O)N2CCOCC2)cc1)c1ccc(Oc2ccccc2)cc1	4%
CCOC(=O)c1c(NC(=O)c2ccc(C)c([N+](=O)[O-])c2)sc(C(=O)NC2CCCC2)c1C	i
CCCN(CCC)C(=O)c1cc2cc(Br)ccc2oc1=O	1%
COc1ccccc1Oc1nnnn1-c1ccc(C(=O)O)cc1	i
Cc1nc(C)c(-c2csc(Nc3ccc(N)cc3)n2)s1	2%
CC(NC(=O)c1ccccc1NC(=O)c1ccc(F)cc1)c1ccccc1 (stereo not given)	i
O=C(Cn1nnc(-c2ccc(OCc3ccccc3F)cc2)n1)N1CCOCC1	i
Cc1nc(C)c(-c2csc(N(C)c3ccc(O)cc3)n2)s1	i
O=C(Cc1c(F)cccc1Cl)Nc1ccc2c(c1)OCCO2	i
O=C(CC(c1ccc(F)cc1)c1ccco1)N1CCOCC1 (stereo not given)	i
O=C(COc1ccccc1)NNC(=O)Nc1ccc(Cl)cc1	i
Cc1cc(C)cc(OCC(=O)Nc2ccc(I)cc2C)c1	i
C=CCSc1nnc2c(n1)OC=Nc1ccc(Br)cc1-2	i
COc1cccc(C2C(C#N)=C(N)Oc3cc(O)ccc32)c1OC (stereo not given)	i
O=C(CSc1nc2ccccc2[nH]1)Nc1ccccc1Cl	i
COc1ccc(N(CC(=O)Nc2ccc(F)c(F)c2)S(=O)(=O)c2ccccc2)cc1OC	i
CC(C)c1ccc(NC(=O)C2CC(=O)N=C(N)S2)cc1 (stereo not given)	3%
COc1cccc(COc2ccc3c4c(c(=O)oc3c2C)CCC4)c1	i
Cc1c(Cl)ccc2c(C(=O)Nc3ccncc3)cc(-c3ccccn3)nc12	i
Cc1ccccc1N1C(=O)CC(Cc2ccccc2)C1=O (stereo not given)	i
COCc1cc(C)nc2sc(C(=O)Nc3cccc(OC)c3)c(N)c12	i
Cc1ccccc1C(=O)N1CCC(C(=O)Nc2ccc(C(C)C)cc2)CC1	i
CS(=O)(=O)N(CC(=O)NCC1CCCO1)c1cc(Cl)ccc1Cl (stereo not given)	i
CCOc1ccc(C2C=C(c3ccc(F)cc3)Nc3ncnn32)cc1 (stereo not given)	i
CCC(C(=O)O/N=C(\N)c1ccc(C)cc1)c1ccccc1 (stereo not given)	i
N#Cc1c(N)n(Cc2ccccc2)c2nc3ccccc3nc12	i
CCOC(=O)c1ccc(NC(=S)Nc2cccc(Cl)c2C)cc1	43%
Cc1cccc(C)c1NC(=O)c1ccc(COc2ccc(Cl)cc2)o1	35%
Cc1c(NC(=O)c2sc3ccccc3c2Cl)c(=O)n(-c2ccccc2)n1C	i
COc1ccc([N+](=O)[O-])cc1NS(=O)(=O)c1ccc(Br)s1	i
Brc1ccc(-c2nn3c(Cc4ccccc4)nnc3s2)cc1	i
COc1ccc(Cc2nnc(SCC(=O)Nc3nc(-c4ccc(C)cc4)cs3)n2C)cc1	i
C=CCc1cc(OC)ccc1OCC(O)CN1CCN(c2ccccc2F)CC1 (stereo not given)	2%
Cc1ccc(S(=O)(=O)N(CC(=O)NCC2CCCO2)Cc2ccc(F)cc2)cc1 (stereo not given)	i
CC1(C)CC(CCNS(=O)(=O)c2ccccc2)(c2ccccc2)CCO1 (stereo not given)	14%
S=C(Nc1ccc(Cl)c(Cl)c1)NC1CCN(Cc2ccccc2)CC1	12%
COc1ccc(CCNC(=O)Nc2ccc(C(C)=O)cc2)cc1OC	i

New compounds follow
SMILES	Mtb H37Rv
Cc1nnc(SCC(=O)Nc2ccccc2N2CCOCC2)s1	i
CCCCOc1ccc(-c2nc(SCC(N)=O)n[nH]2)cc1	i
O=C1c2cccc3c([N+](=O)[O-])ccc(c23)C(=O)N1Cc1ccccc1	46µg/mL*
Cc1ccc(Cl)cc1N1CCN(C(=O)CN2C(=O)c3cccc4cccc2c34)CC1	i
CCOC(=O)c1sc2ncn(CC(=O)OCc3ccccc3)c(=O)c2c1C	47%
COc1ccc(N2C(=O)CC(Sc3ccc(Cl)cc3)C2=O)c(OC)c1 (stereo not given)	5%
O=C(NNC(=S)Nc1ccc2c(c1)OCO2)c1ccccn1	2%
Cc1ccc(-c2cnc(C)c(-c3ccccc3)c2)nc1-c1ccccc1	i
N#CCCN(Cc1ccco1)S(=O)(=O)c1ccccc1	i
CCOC(=O)C(CC)n1cnc2sc(C(=O)OC(C)C)c(C)c2c1=O (stereo not given)	i
COc1cccc(NC(=O)CCSc2nnc3scc(-c4ccccc4)n23)c1	i
CC(C)(C)CC(=O)Nc1ccc2c(c1)OCO2	i
c1ccc(-c2ccc(-c3nnc(-c4ccc5c(c4)OCO5)o3)cc2)cc1	i
O=C(Nc1ccc2c(c1)OCO2)Oc1ccccc1	i
CCOc1ccccc1N(CC(=O)Nc1cc(C)ccc1C)S(=O)(=O)c1ccccc1	4%
Cc1cccc(C(C)(C)C)c1OCCN1CCCC1	i
C=C1C2(C(=O)Nc3c(C)cc(C)cc3[N+](=O)[O-])CCC(C2)C1(C)C (stereo not given)	i
CCOc1ccc(Nc2oc(-c3ccco3)nc2C#N)cc1	i
O=S(=O)(Nc1ccc(F)cc1)c1ccccc1F	2%
Cc1ccc(Cl)cc1N1CCN(C(=O)c2ccccc2N(Cc2ccccc2)S(C)(=O)=O)CC1	1%

An excerpt; the hit share may differ from the screen's.
